NPYLR7 agonist: agonists of mosquito NPYLR7 receptor, primary screen, cell-based, Aedes aegypti, calcium fluorescence, mosquito biting behavior. Aedes aegypti neuropeptide Y-like receptor 7 (NPYLR7). HEK293T NPYLR7/Galpha15, GCaMP6s calcium fluorescence. activation, % at 10 µM. actives 0.15% (n = 270,000). AID 1259423, 2018; in the data active = activation above about 40%;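 also: 0% = vehicle and 100% = reference agonist at the receptor; some compounds past the cut are filed as inactive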
NPYLR7 agonist max-min: also measured in NPYLR7 agonist; calls as there; activation, %; measured here: Max-Min RFU normalised activation; some inactives read as strong as hits;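 span of the calcium signal over five minutes; 0% = vehicle and 100% = native peptide agonist; compound fluorescence can raise it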
Numbers without * were called inactive. A portion of the library (hit frequency here may not be typical).

(1) Cc1cc(C)n(C2CCN(c3ncnc4sc5c(c34)CCNC5)C2)n1 (configuration not stated)
(2) Cc1oncc1C(=O)NC1CCN(C(=O)c2cc(Cl)c3c(c2)OCO3)CC1
(3) O=C(c1cn[nH]n1)N1CCC(Oc2ncccn2)CC1
(4) COc1cc2c(cc1OC)C(c1cccc(Cl)c1)N(C(=O)c1cccc(OC(C)=O)c1C)CC2 (configuration not stated)
(5) CC1CCN(c2ccc(NS(=O)(=O)c3ccc4ccccc4c3)cc2C(=O)NCc2ccccc2)CC1
(6) NC(=O)COc1ccccc1-c1nc2ccccc2o1
(7) O=C(COc1cccc(Br)c1)Nc1ccc2c(c1)OCO2
(8) CCN(CC)C(=O)COc1coc(CN2CCc3ccccc3C2)cc1=O

entry no.	1	2	3	4	5	6	7	8
NPYLR7 agonist	-8	2	-4	17	23	21	-2	3
NPYLR7 agonist max-min	-9	0	-5	7	23	29	14	3

Reformatted with two lines to a compound: part of the list above.
The line under a structure holds: NPYLR7 agonist	NPYLR7 agonist max-min
(7) O=C(COc1cccc(Br)c1)Nc1ccc2c(c1)OCO2
→ -2	14
(8) CCN(CC)C(=O)COc1coc(CN2CCc3ccccc3C2)cc1=O
→ 3	3

Further results follow.
(9) O=C(CCc1ccccc1Cl)c1ccccc1
(10) CN(c1ccccc1)N1C(=O)c2ccccc2NC12CCN(C(=O)C1CCCO1)CC2 (configuration not stated)
(11) CN(CC1Cc2ccccc2O1)C(=O)c1ccc(-n2cc(NC(=O)c3cccnc3)cn2)cc1 (configuration not stated)
(12) Cn1c(=O)[nH]c(=O)c2c1nc(N1CCN(Cc3c(Cl)cccc3Cl)CC1)n2Cc1ccccc1
(13) COCCNC(=O)C(NC(=O)c1ccc(OC)cc1)C1CCN(C(=O)c2ccccc2OC)CC1 (configuration not stated)
(14) COC(=O)c1ccc(NC(=O)CCN2CC(N3CCCCC3C)C2)cc1 (configuration not stated)
(15) C=Cc1ccc(-c2csc(N)n2)cc1
(16) O=C1NC(=O)C2(CCCCc3ccccc32)N1 (configuration not stated)

entry no.	9	10	11	12	13	14	15	16
NPYLR7 agonist	11	-1	1	1	-9	16	-1	0
NPYLR7 agonist max-min	7	30	-2	3	-1	13	6	31

(17) CN1OC(C)(CC(=O)NCc2ccc(N(C)C)cc2)N=C1c1ccccc1 (configuration not stated)
(18) COCCNC(=O)C1(C)CCN1C(=O)C/C=C/c1ccccc1 (configuration not stated)
(19) c1ccc(Oc2cccc(C3c4cccn4CCCN3Cc3ccco3)c2)cc1 (configuration not stated)
(20) CC1CCN(c2ccc(C(=O)NCC(=O)Nc3cn[nH]c3)cn2)CC1
(21) COc1ccccc1NC(=O)CCC(=O)c1ccc(SC)cc1
(22) O=S(=O)(NCCCN1CCOCC1)c1ccc(Cl)cc1Cl
(23) CC(C)CN1CC(OCc2cccc(F)c2)CN(C(=O)CC2NC(=O)c3ccccc32)CC1=O (configuration not stated)
(24) FC(F)C(F)(F)Oc1cccc(Nc2nccn3c(-c4cccc5ccccc45)cnc23)c1

entry no.	17	18	19	20	21	22	23	24
NPYLR7 agonist	6	1	9	7	-2	14	-5	-8
NPYLR7 agonist max-min	5	-1	8	4	-4	17	-6	-10

Screen by screen, from the results shown.
Compounds 4–13 in NPYLR7 agonist max-min, in turn: 7, 23, 29, 14, 3, 7, 30, -2, 3, -1
Compounds 4–13 in NPYLR7 agonist, in turn: 17, 23, 21, -2, 3, 11, -1, 1, 1, -9

(next part)
(25) COc1ccccc1C(=O)NC(C(=O)NCc1ncc(Cl)n1C)C(C)C (configuration not stated)
(26) c1ccc2c(c1)CCC(NCc1ccccc1OCC1CC1)C2 (configuration not stated)
(27) O=C(Cn1cnnn1)NC1CCCOc2c1ccc(Cl)c2Cl (configuration not stated)
(28) CCCCN(CC(=O)N(CCc1c[nH]c2ccccc12)Cc1ccc(OC)cc1)C(=O)Nc1ccccc1F
(29) O=C(NC(c1ccccc1)c1ccc2ccccc2n1)C1CCN(Cc2ccc(Cl)cc2)CC1 (configuration not stated)
(30) CCOC(=O)C1(CC2CCCCO2)CCN(Cc2cccc3ccccc23)CC1 (configuration not stated)
(31) Cc1sc(N2CCOCC2)nc1-c1ccc2c(c1)NC(=O)CO2
(32) CCCc1[nH]n(-c2ccc([N+](=O)[O-])cc2)c(=O)c1C=NCCN1CCN(C(C)=O)CC1

entry no.	25	26	27	28	29	30	31	32
NPYLR7 agonist	7	0	-1	27	9	7	-17	-17
NPYLR7 agonist max-min	3	12	-4	25	2	6	-20	-19

(33) COc1ccc(-c2ccc3nnc(SCc4cccnc4)n3n2)cc1
(34) COc1ccccc1N1C(=O)c2ccccc2NC1c1cccc(C)n1 (configuration not stated)
(35) CN(Cc1ccc(N2CCNC2=O)cc1)Cc1ccc(-n2cccn2)cc1
(36) COCc1cc(CNC(=O)c2ccc3c(c2)nnn3C)[nH]n1
(37) COc1ccc(C2=CCN(S(=O)(=O)c3cc(C(N)=O)n(C)c3)CC2)cc1
(38) CCOC(=O)/C(=N/Nc1cccc(C(F)(F)F)c1)c1csc(N)n1
(39) COc1ccccc1OCC(=O)OCc1cc(-c2ccccc2)on1
(40) Cc1ccc(S(=O)(=O)N(C)c2c(C)ccc(S(=O)(=O)N(C)CCCC(=O)O)c2C)cc1

entry no.	33	34	35	36	37	38	39	40
NPYLR7 agonist	-20	9	4	38	13	9	0	11
NPYLR7 agonist max-min	-16	11	4	20	8	8	0	9

Among those listed so far, these contain an aryl thioether with sulfur outside any ring:
(21) COc1ccccc1NC(=O)CCC(=O)c1ccc(SC)cc1
(33) COc1ccc(-c2ccc3nnc(SCc4cccnc4)n3n2)cc1

entry no.	21	33
NPYLR7 agonist	-2	-20
NPYLR7 agonist max-min	-4	-16

Next results
(41) Cc1ccc(-n2nnc3c(N4CCN(C(=O)CC(C)C)CC4)ncnc32)cc1
(42) CCc1ccc(CN2CCN(CCc3ccccc3)C(CCO)C2)o1 (configuration not stated)
(43) CN(CCc1cn[nH]c1)c1cc(C(F)(F)F)nc(N2CCCC2)n1
(44) CCn1c(CC2CCN(c3ccnc4ccccc34)CC2)nn(C)c1=O
(45) CCCCN(C=O)c1c(CC)nc2ccc(C(=O)Nc3ccc(NC(C)=O)cc3)cn12
(46) COc1ccc(-c2nc3ccccn3c2NC(=O)CCCCl)cc1
(47) Cc1cc(C(=O)NC(C)C2CC2)c(C)n1Cc1cccs1 (configuration not stated)
(48) Cc1nn(C)cc1CNC(=O)c1coc(COc2cccc3cccnc23)n1

entry no.	41	42	43	44	45	46	47	48
NPYLR7 agonist	-1	9	2	8	5	-2	-24	14
NPYLR7 agonist max-min	-10	0	0	5	-6	5	-26	4

(49) Cc1nc(SCC(=O)NN2C(=O)NC3(CCC(C)CC3)C2=O)c2c(C)c(C)sc2n1 (configuration not stated)
(50) Cc1cc(C(C)NC(=O)NCC(=O)N(C)CC(F)(F)F)c(C)o1 (configuration not stated)
(51) O=C(CN1CN(c2ccccc2)C2(CCN(C(=O)c3cc(Cl)cc(Cl)c3)CC2)C1=O)NCc1cccc(C(F)(F)F)c1
(52) CC(C(N)=O)N1CCN(c2cc(C(F)(F)F)nc3ncnn23)CC1 (configuration not stated)
(53) CN(C)c1cccc(-c2nccc3[nH]nc(-c4ccccc4)c23)c1
(54) CC1(C)CC(=O)C2C(=Nc3ccccc3NC2/C=C/c2ccccc2)C1 (configuration not stated)
(55) CC1CCCCC1NC(=O)CN(Cc1cccs1)C1CC1 (configuration not stated)
(56) COc1ccccc1C(=O)Nc1sc2c(c1C(N)=O)CCCC2

entry no.	49	50	51	52	53	54	55	56
NPYLR7 agonist	3	5	16	5	-1	5	4	2
NPYLR7 agonist max-min	1	1	13	2	-2	3	4	-2

(57) CN(C(=O)c1ccccc1N1CCC(NC(=S)Nc2ccc(F)cc2)CC1)C1CCCCC1
(58) CN(CCS(=O)(=O)N1CCCC1)S(=O)(=O)c1cccs1
(59) CC(C)=CC(=O)NCc1ccc(-c2ncc(-c3ccc(F)cc3)[nH]2)cc1
(60) COc1ccc(-c2nnc(C[C@@H]3C[C@@H](C(C)C)[C@H](CNc4ccccn4)C=C3C)o2)cc1
(61) CCOC(=O)CNC(=O)N1CCCC(Nc2cccc(F)c2)C1 (configuration not stated)
(62) O=C(Nc1ccc(N2CCCC2)cc1)c1ccc[nH]c1=O
(63) CC(C)CC(NC(=O)c1cnccn1)c1nnc2n1CCNCC2 (configuration not stated)
(64) CCc1nc(N2CCCCC2)c2c(C)c(C)sc2n1

entry no.	57	58	59	60	61	62	63	64
NPYLR7 agonist	-1	6	1	-10	5	1	7	-2
NPYLR7 agonist max-min	11	2	11	-11	4	26	4	-1

(65) CNC(C)(C)C(=O)NCC1CCN(Cc2cc3ccccc3o2)C1 (configuration not stated)
(66) Cc1cc2nc(CNC(=O)[C@H](N)CC(C)C)[nH]c2cc1C
(67) O=C(NCC(=O)N1CCC(C(=O)c2ccccc2)CC1)c1ccccc1F
(68) COc1ccc(CCN(C)C(=O)c2c(-c3c(Cl)cccc3Cl)noc2C)cc1OC
(69) COc1ccc(NC(=O)C(C)N2CCC(C(=O)N3CCCC3)CC2)cc1Cl (configuration not stated)
(70) CCCCCCc1ccc(C(=O)N2CCc3nc(C)nc(N4CCCC4)c3C2)cc1
(71) Cc1ccc2nc(C)c(NC(=O)c3sc(C)nc3C)c(=O)n2c1
(72) O=C(c1cn(CCc2ccccc2)nn1)N1CCc2ccccc2C1

entry no.	65	66	67	68	69	70	71	72
NPYLR7 agonist	-1	2	9	-1	3	-4	1	6
NPYLR7 agonist max-min	-2	-4	13	-11	2	6	-2	1

(73) COc1ccc(OC)c(C(C2Sc3nc(C)nn3C2=O)N2CCN(C(C)=O)CC2)c1 (configuration not stated)
(74) C=CCN1C(=O)NC(c2cccc(OCc3ccccc3)c2)C2=C1CN(C1CCCCC1)C2=O (configuration not stated)
(75) O=C1c2ccccc2C(=O)N1CN(C(=O)c1ccc([N+](=O)[O-])cc1)c1ccc(F)cc1
(76) O=C1NC2(CCN(Cc3ccccn3)CC2)Nc2cccc(F)c21
(77) COc1cccc(C(=O)N2CCN(c3nc(-c4cccc(F)c4)nc(C)c3C)CC2)c1
(78) CC(C)Cc1cnc2c(c1SCC(=O)Nc1ccc(C(F)(F)F)cc1)c(=O)n(C)c(=O)n2C
(79) Cc1cc(=O)c(C(=O)N(C)CC(=O)Nc2cccc(F)c2)nn1-c1ccccc1
(80) COc1cccc(COc2coc(C(=O)NCc3cccnc3)cc2=O)c1

entry no.	73	74	75	76	77	78	79	80
NPYLR7 agonist	-1	3	-1	2	5	7	0	2
NPYLR7 agonist max-min	-5	7	-6	4	13	8	-2	4

Grouped by structure, the entries above containing a nitro group on carbon.
(32) CCCc1[nH]n(-c2ccc([N+](=O)[O-])cc2)c(=O)c1C=NCCN1CCN(C(C)=O)CC1
(75) O=C1c2ccccc2C(=O)N1CN(C(=O)c1ccc([N+](=O)[O-])cc1)c1ccc(F)cc1

entry no.	32	75
NPYLR7 agonist	-17	-1
NPYLR7 agonist max-min	-19	-6

(cont.)
(81) COc1cccc(CCNC(=O)c2c(C)oc(C)c2-c2ccc(Cl)cc2)c1
(82) Cc1cccc(-n2cc(CN3C[C@H]4C[C@H](O)[C@H](O)C[C@H]4C3)cn2)c1
(83) Cc1cccc(C(=O)NCCN2CCn3cc(OCc4ccc(F)cc4)c(=O)cc3C2=O)c1
(84) Cn1c(-c2ccccc2)cc2c(Nc3ccc(C#N)cc3)nccc21
(85) Cc1cccc2c(C3CCN(C(=O)c4c(F)c(F)cc(F)c4F)CC3)c[nH]c12
(86) Cc1ccccc1Cn1cnc2c(cnn2CCNC(=O)c2ccc(C(C)(C)C)cc2)c1=O
(87) Cc1oc(-c2cccs2)nc1CN1CCCC(Nc2ccc3c(c2)OCCO3)C1 (configuration not stated)
(88) CC(NCC1CCCOC1)c1ccccc1Cl (configuration not stated)

entry no.	81	82	83	84	85	86	87	88
NPYLR7 agonist	1	-2	7	-4	3	-2	6	4
NPYLR7 agonist max-min	-4	3	1	-9	6	-6	5	3

(89) Cc1ccc(-n2cc(-c3ccccc3)c3c(NCCCO)ncnc32)cc1
(90) COC(=O)CSc1ccc2nnc(-c3ccccn3)n2n1
(91) CC(C)Oc1ccc(C(=O)NNC(=O)c2nccnc2N)cc1
(92) CCCC(=O)N1CCC2(CC1)C(=O)N(CC(=O)NC1CC1)CN2c1ccccc1

entry no.	89	90	91	92
NPYLR7 agonist	-4	-1	6	22
NPYLR7 agonist max-min	-5	-3	8	27

Bioassay records as filed in PubChem.
